Screening data from PubChem BioAssay.
ugtP null kill: growth inhibition of S. aureus ugtP deletion strain; S. aureus RN4220 ugtP deletion, OD600 growth, 16 h; some inactives read as strong as hits; growth inhibition, % (no concentration beside the values); actives 0.54% (n = 330,000);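 active = z-score under -3 and OD600 up to 0.15 on both plates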;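 also: plate controls were untreated wells for no effect and antibiotic for full effect; wells of about 80 µL received 100 nL stock; the first replicate is given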
Sa RN4220 lethal: kills Staphylococcus aureus RN4220 | S. aureus RN4220 growth, OD600, 16 h | actives 0.33% (n = 330,000) | inhibition, % (no concentration beside the values);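 active = z-score of -3 or lower and OD600 up to 0.18 on both plates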;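 also: plate controls were untreated cells for no effect and reference antibiotic for full effect; stock transfer was 100 nL into about 80 µL; one replicate is shown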
PrP UTR inh: inhibition of PrP 5' UTR reporter expression; cell-based PrP 5' UTR mRNA reporter, plate reader; inhibition, % (test concentration not listed); actives 0.35% (n = 340,000); AID 488862;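 active = every replicate at 50% or more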;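 also: 0 = median of the neutral control wells; tested in H4 reporter cells; numbers are from one replicate; inactives centre near -14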
Bead autofluor: compound fluorescence in toxin protease inhibitor counterscreen. compound autofluorescence counterscreen, microsphere flow cytometry; active compounds read high. fluorescence intensity (no concentration beside the values). actives 3.1% (n = 360,000);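 active = at least 3 SD above the mean of all compounds, about 16000 in these data; inconclusive = too few beads counted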;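 also: 100 nL of 1 mM stock went into each well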
Mtb hypoxia inh: inhibitors of hypoxia-regulated fluorescent reporter in Mycobacterium tuberculosis; M. tuberculosis hypoxia-regulated fluorescent reporter, fluorescence; fluorescence inhibition, % (no concentration beside the values); actives 0.1% (n = 300,000); AID 1159583;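 active = 35 to 45% if threefold the growth effect, above 45% if 1.5-fold the growth effect; inactive = the rest, general growth blockers included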;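 also: wells of about 50 µL received 100 nL stock; 0% = vehicle wells and 100% = reference inhibitor wells; whole bacteria with a GFP reporter of the hypoxia response; strong numbers were not always called active; many hits fall short of the cut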
BJeLR lethal: BJeLR cell viability loss; BJeLR (HRASV12) viability, CellTiter-Glo ATP luminescence, 48 h; reference of the scale not given here; inhibition, % (concentration not given with the values); actives 0.17% (n = 300,000);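 active = replicate mean above 50%; inconclusive = above 50% but judged a plate artefact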;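 also: 50 nL library stock added to about 25 µL; numbers are from one replicate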
Mtb hypoxia inh growth: recorded beside Mtb hypoxia inh, whose call it bears; growth inhibition, %; measured here: M. tuberculosis growth (absorbance);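 0% = vehicle and 100% = reference antibiotic; read after six days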
An asterisk follows results filed as active; ? = inconclusive; nt = not tested or not shown. Rows were taken by chance (roughly 4% active in at least one column).

cpd	SMILES	ugtP null kill	Sa RN4220 lethal	PrP UTR inh	Bead autofluor	Mtb hypoxia inh	Mtb hypoxia inh growth	BJeLR lethal
1	CNC(CC(C)C)C(=O)NC1C(=O)NC(CC(N)=O)C(=O)NC2C(=O)NC3C(=O)NC(C(=O)NC(C(=O)O)c4cc(O)cc(O)c4-c4cc3ccc4O)C(O)c3ccc(c(Cl)c3)Oc3cc2cc(c3OC2OC(CO)C(O)C(O)C2OC2C[C@](C)(N)C(O)C(C)O2)Oc2ccc(cc2Cl)C1O (stereo partly drawn)	100*	101*	53	4392	nt	nt	nt
2	CCN(C[C@H]1N[C@@](CC)(C(=O)OC)[C@H]2C(=O)N(Cc3ccccc3)C(=O)[C@@H]12)C(=O)COc1ccccc1	-3	1.5	-10	3756	-7	3	nt
3	COc1ccc(C(=O)N(Cc2ccco2)Cc2cccs2)c(O)c1	-5	13	27	7162	12	12	-6
4	Cn1c(=O)[nH]c(=O)c2c1nc(N1CCNCC1)n2Cc1ccccc1	6	3.0	-25	3396	9	4	-9
5	O=c1[nH]c(C2CCN(S(=O)(=O)c3ccccc3)CC2)nc2c1nnn2Cc1ccccc1	7	17	-8	4633	13	9	-5
6	CCn1ccc(C(=O)Oc2ccc(Cl)cc2)n1	4	2.7	-16	3096	nt	nt	-1
7	CN(Cc1ccccc1)C(=O)c1nc[nH]c1C(=O)N1CCc2ccccc2C1	31	25	-2	3240	9	10	nt
8	CCN(C(=O)CSc1nc(N)cc(=O)[nH]1)c1c(N)n(Cc2ccccc2)c(=O)[nH]c1=O	1	1.4	-2	5376	7	3	8
9	Cc1occc1-c1n[nH]c(=S)n1-c1ccccc1	3	-1.1	-19	2712	-1	-14	-10
10	CCOc1ccc(NC(=O)CN2CCN(CC(=O)Nc3ccc(OC)cc3OC)CC2)cc1	6	1.3	nt	3465	-1	9	1
11	COc1ccc(C=NNc2nonc2N)cc1	2	5.5	nt	nt	19	5	nt
12	CC(C(=O)Nc1ccc(C#N)cc1)N1CCN(C(=O)C2CC2)CC1 (stereo not drawn)	7	4.8	-17	3725	5	3	nt
13	CCN(CC(O)COc1ccc(OCC(O)CN(CC)C2CCCCC2)cc1)C1CCCCC1 (stereo not drawn)	2	1.6	-9	2917	7	14	2
14	COc1ccc(NS(=O)(=O)c2ccc(-c3coc(C)n3)cc2)cc1OC	4	1.7	3	nt	12	-4	10
15	O=C(COc1ccccc1[N+](=O)[O-])NCCC1=CCCCC1	9	11	-3	3330	6	0	5
16	CCc1n[nH]c2c1C(=NO)CCC2	-4	-4.8	nt	nt	4	12	nt
17	COc1ccc(NC(=O)CN(C)C(=O)c2cn(-c3ccccc3)nc2-c2cccnc2)cc1	0	1.5	-14	6192	-10	-6	2
18	CCCCN(C(=O)c1ccccc1OCc1ccc(F)cc1)c1c(N)n(CCC)c(=O)[nH]c1=O	-1	-0.5	-5	5591	5	7	-3
19	CNC(=S)Nc1cccc(S(=O)(=O)NC2=NCCC2)c1	3	5.1	-31	3683	0	2	2
20	O=C(c1cccc(C(=O)N2CCN(c3ccccc3)CC2)c1)N1CCN(c2ccccc2)CC1	-4	0.8	-9	10000	3	-1	4
21	CCOc1ccc(C(=O)NCC(=O)OCC(=O)N2CCCCC2)cc1	10	2.3	-25	2664	nt	nt	2
22	COc1ccccc1-c1oc2ccccc2c1C#CCCCCO	12	3.8	-1	3653	23	10	nt
23	O=C(Nc1ccc(Cn2cccn2)cc1)c1ccc(COc2ccc(Br)cc2)cc1	-2	-1.1	-6	4139	2	-4	12
24	NC(=O)c1ccc(NC(=O)COC(=O)CC23CC4CC(CC(Br)(C4)C2)C3)cc1	8	0.4	-2	2824	6	2	nt
25	C1=CC2CC1CC2CN1CCN(c2ccccc2)CC1 (stereo not drawn)	7	5.9	-40	10509	9	2	-5
26	CCOC(=O)C1CCN(c2cc3c(cc2NC(=O)c2ccccc2Cl)n(C)c(=O)n3C)CC1	-1	4.9	-11	4785	-1	14	3
27	CSc1ccccc1OCc1cc(C(=O)NC2CCOC(C)(C)C2)no1 (stereo not drawn)	5	2.6	9	4699	12	12	-7
28	CCOc1ccc(-c2nc(CSCC(=O)NCC3CCCO3)c(C)o2)cc1 (stereo not drawn)	2	4.0	-3	5204	7	9	5
29	C#CCOCCOCCOCCNc1nc(N2CCN(C(=O)[C@H](CCCCN)n3cc(CN)nn3)CC2)nc(N2CCN(C(=O)[C@H](CCC(=O)O)n3cc([C@@H](N)[C@H](C)CC)nn3)CC2)n1	7	4.5	-19	2863	-3	-2	nt
30	COc1ccc(NC(=O)C2CCCO2)cc1OC (stereo not drawn)	-1	4.8	nt	10942	-3	3	-7

Part of the list above with just Sa RN4220 lethal, PrP UTR inh and BJeLR lethal:
| No. | smiles | Sa RN4220 lethal | PrP UTR inh | BJeLR lethal |
| --- | --- | --- | --- | --- |
| 27 | CSc1ccccc1OCc1cc(C(=O)NC2CCOC(C)(C)C2)no1 (stereo not drawn) | 2.6 | 9 | -7 |
| 28 | CCOc1ccc(-c2nc(CSCC(=O)NCC3CCCO3)c(C)o2)cc1 (stereo not drawn) | 4.0 | -3 | 5 |

Continuation.
cpd	SMILES	ugtP null kill	Sa RN4220 lethal	PrP UTR inh	Bead autofluor	Mtb hypoxia inh	Mtb hypoxia inh growth	BJeLR lethal
31	CC1CC1C(=O)OCC(=O)N(C)CC(=O)Nc1ccc(F)cc1 (stereo not drawn)	4	4.5	-21	3213	23	43	nt
32	NS(=O)(=O)c1ccc(CCNC(=S)Nc2ccc(F)cc2)cc1	-9	-1.1	-59	2135	12	8	3
33	CC(NC(=O)COC(=O)c1ccccc1O)C1CC2CCC1C2 (stereo not drawn)	-4	-4.8	-17	?	6	13	nt
34	COc1ccc(C(=O)NN=c2oc3ccccc3cc2C(=O)NCc2ccccc2)cc1	-4	0.9	nt	nt	-7	-1	nt
35	COC(=O)c1cc(C(=O)OC)cc(-n2c(C)cc(C=O)c2C)c1	7	3.8	-14	4406	9	0	2
36	Cc1c(NC(=O)c2ccc(N(C)S(=O)(=O)c3ccccc3)cc2)c(=O)n(-c2ccccc2)n1C	1	-3.2	-11	3488	-11	-1	-1
37	O=C(NC1CC1)c1cccc(Oc2ccccc2)c1	11	4.8	-36	3335	5	-3	-11
38	Cc1ccc(NC(=O)CC2SC3=NCCCN3C2=O)c(C)c1 (stereo not drawn)	3	7.1	-10	4709	nt	nt	1
39	CC1(C)Cc2nc3sc(C(=O)NCCO)c(N)c3cc2CO1	-6	6.1	-36	4776	15	12	-3
40	CC(=O)Nc1nc2ccccc2n1Cc1ccccc1	-2	0.7	-22	5849	-4	2	-5
41	Cc1c(CNCCc2ccccc2)c(C(=O)O)c(C)n1-c1ccccc1	-7	-3.8	-12	3855	-12	2	-3
42	O=C(CN1C(=O)NC2(CCCCC2)C1=O)Nc1cccc2ncccc12	1	-0.7	-9	3084	2	-2	nt
43	C/C=C/Cn1c(SCc2ccc(Cl)cc2)nc2c1c(=O)[nH]c(=O)n2C	27	-3.6	-18	2705	nt	nt	-1
44	Cc1cc(OC(C)C(=O)NCCN2CCOCC2)c2c(C)c(C)c(=O)oc2c1 (stereo not drawn)	7	2.4	-12	3917	7	1	0
45	COc1cccc(C2/C(=C(\O)c3ccc4c(c3)OCO4)C(=O)C(=O)N2CCN(C)C)c1OC (stereo not drawn)	8	0.8	-14	3833	nt	nt	2
46	Cc1cccc(N2C(=O)NC(=O)/C(=C/c3ccc(-c4ccc(C(=O)O)c(Cl)c4)o3)C2=O)c1	4	-1.4	nt	nt	1	-2	-5
47	COc1ccc(-n2nc(C(=O)NCC(=O)NC(C)C)c3ccccc3c2=O)cc1	5	3.1	-17	3659	0	6	-4
48	Cc1nc(-c2ccccn2)sc1C(=O)Nc1ccc(F)cc1	-18	-2.7	-35	6209	-17	-11	-10
49	CC(=O)c1ccc(NC(=O)COC(=O)C2CCN(S(=O)(=O)c3cccs3)CC2)cc1	1	1.3	-1	5385	-7	6	nt
50	COc1ccc(CN2CCNC(=O)C2CC(=O)NCCC2=CCCCC2)c(F)c1 (stereo not drawn)	5	4.6	-21	4910	-1	0	-2
51	COc1ccccc1NC(=O)CCSc1nc(C)cs1	4	1.7	-15	4200	9	-10	0
52	Oc1ccc(/C=N/NC(=S)Nc2cccnc2)c(O)c1O	nt	nt	-4	4137	nt	nt	-5
53	Nc1cc2c(cc1C(=O)c1cccc(Br)c1)OCCO2	12	-0.1	-24	2581	5	2	3
54	CCOC(=O)C1=C(COC(=O)/C=C/c2cccc(Br)c2)NC(=O)NC1C (stereo not drawn)	-13	10.0	-12	6929	2	5	nt
55	O=c1[nH]c2ccccc2n2c(=S)[nH]nc12	12	4.3	-7	5309	-1	11	-6
56	O=C(COC(=O)C1CCN(S(=O)(=O)c2cccc3cccnc23)CC1)c1ccccc1	9	4.8	-15	2451	4	7	4
57	CC(C)OC(=O)CCCNc1ccc([N+](=O)[O-])cc1[N+](=O)[O-]	-4	11	-16	10728	5	9	-4
58	CCOc1ccc(N2CC(C(=O)Nc3ccc(S(=O)(=O)N4CCOCC4)cc3)CC2=O)cc1 (stereo not drawn)	-2	8.9	-21	23130*	4	17	-12
59	CCOC(=O)c1cc(-c2ccco2)nc2c1c(C)nn2CCC#N	-12	-3.8	-12	4996	nt	nt	1
60	CN1C(=O)/C(=C/C=C2\SCCN2C)OC1=S	21	6.6	-126	3956	-23	5	-4
61	O=C(Nc1cccnc1)c1sc2cccc(F)c2c1Cl	5	-2.8	-102	3814	12	-1	24
62	Cc1cc(C)c2nc(-c3ccccn3)cc(C(=O)NCc3ccc(S(N)(=O)=O)cc3)c2c1	0	5.3	-9	4742	7	7	-6
63	CC(Cc1cccnc1)NC(=O)CCc1nnc(-c2ccccc2)o1 (stereo not drawn)	3	7.5	-38	4982	-1	-14	4
64	C=C(C)c1cccc(C(C)(C)NC(=O)Nc2ccc(C)cn2)c1	-16	-0.1	-28	2029	7	-11	9
65	Cn1c(N)cc(=O)[nH]c1=S	-1	7.7	-27	3357	8	3	nt
66	COCC(=O)Nc1ccc([N+](=O)[O-])cc1C	0	1.5	-13	2440	5	5	5
67	CCOC(=O)C1(CCOc2ccccc2)CCN(Cc2nccn2CC)CC1	4	0.6	-2	2733	1	4	4
68	c1ccc(-c2nc(N3CCOCC3)s[n+]2-c2ccccc2)cc1	7	4.9	-34	2151	-15	-4	-17
69	Cc1cc2ncn(/N=C/c3cccnc3)c2cc1C	nt	nt	-18	4414	nt	nt	-7
70	Cc1ccc(NCN2C(=O)C3CC=CCC3C2=O)cc1 (stereo not drawn)	-6	3.1	-12	4062	-1	1	-3
71	CCOC(=O)C1(Cc2ccccc2)C(=O)Nc2ccccc21 (stereo not drawn)	-2	2.6	-23	4281	0	5	2
72	Cc1ccc(NC(=O)COC(=O)C2COc3ccccc3O2)cc1S(=O)(=O)N1CCOCC1 (stereo not drawn)	8	3.2	-15	2016	11	8	-5
73	COc1cccc(NC(=O)CN(C)C(=O)Cn2[nH]c(=O)c3ccccc3c2=O)c1	-2	3.0	-8	nt	7	-5	-6
